# FGF22 binding = shifts melting point of recombinant human FGF22. calls only at 9.99 µM. recombinant FGF22 thermal shift, SYPRO orange fluorescence; percent of sucrose octasulfate shift, DMSO zero. AID 651658. 1.5% of 340,000 active;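 active means melting point raised past a set limit in the mean and every replicate; three in four hits are not shown here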
# Target sequence (Q9HCT0 whole entry, looked up): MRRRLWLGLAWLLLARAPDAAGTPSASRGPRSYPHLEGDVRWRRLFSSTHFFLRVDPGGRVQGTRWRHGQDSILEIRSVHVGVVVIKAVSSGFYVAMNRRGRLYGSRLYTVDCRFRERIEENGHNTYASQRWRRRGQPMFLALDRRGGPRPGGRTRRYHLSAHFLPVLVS
# HNF4A DNA FP = change in binding of human HNF4 alpha to DNA. HNF4a-FITC DNA binding, fluorescence polarization, 1 h. activity change, % at 10 µM. P41235. 0.3% of 360,000 active; in the data active means activity change above about 30%, passing the limit was not always enough;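 further: controls were the assay level and a saturating level of protein; the project sought stronger binding though the title names inhibitors; some compounds called inactive have numbers as strong as hits; positive values seem to mean higher polarization but the record does not say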
# Target sequence (P41235 whole entry, looked up): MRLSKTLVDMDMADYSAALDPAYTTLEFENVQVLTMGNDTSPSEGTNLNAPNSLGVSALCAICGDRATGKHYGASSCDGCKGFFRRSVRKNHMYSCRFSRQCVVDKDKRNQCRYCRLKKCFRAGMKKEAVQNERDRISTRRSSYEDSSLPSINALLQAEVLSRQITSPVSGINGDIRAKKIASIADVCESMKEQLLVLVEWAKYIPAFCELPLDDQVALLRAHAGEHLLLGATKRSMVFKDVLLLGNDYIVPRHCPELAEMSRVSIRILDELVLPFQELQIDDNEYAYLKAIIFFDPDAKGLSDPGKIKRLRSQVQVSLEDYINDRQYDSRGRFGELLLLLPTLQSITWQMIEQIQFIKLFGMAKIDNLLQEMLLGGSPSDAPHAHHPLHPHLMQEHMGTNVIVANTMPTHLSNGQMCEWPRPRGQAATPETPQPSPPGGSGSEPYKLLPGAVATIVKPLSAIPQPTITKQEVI
# Active calls of the source: *; i = inactive; . = not tested or not shown. Not all compounds are listed. The share of hits here may be higher or lower than overall.
1. COc1ccc(C(O)c2nc(-c3ccc(Cl)cc3)cs2)cc1 (stereo unspecified)
2. Cc1cccc(C)c1NC(=O)Nc1nnc([C@H]2C[C@H](O)[C@@H](CO)O2)s1
3. CCSc1ccc(-c2cc(NC=O)c3ncc(-c4cc(OC)c(OC)c(OC)c4)n3c2)cc1
4. CC(C)N(C)c1ncnc2c1ncn2[C@H]1CN(Cc2ccncc2)C[C@@H](CO)O1
5. CC(C)C[C@H]1CN(CCCC[C@H]2CNC(=O)C(=O)N2CCc2ccccc2)C(=O)C(=O)N1CCc1ccccc1
6. O=C(Nc1c(Cl)cccc1Cl)Oc1cccc2cccnc12
7. Cc1cccc(NC(=O)CCc2ccc(N3C(N)=NC(N)=NC3(C)C)cc2)c1
8. CCN(C)C1CN(Cc2cn(Cc3ccc(OC)cc3)nn2)S(=O)(=O)C1 (stereo unspecified)
assay / compound,1,2,3,4,5,6,7,8
FGF22 binding,i,i,i,i,i,i,i,i
HNF4A DNA FP,2.3,0.5,4.1,-3.4,4.2,0.7,-2.0,0.3

9. COc1ccc(-n2ccnc2SCC(=O)c2c(N)n(C3CC3)c(=O)[nH]c2=O)cc1
10. COc1ccc(NC(=O)CSc2nnnn2C2CCCC2)cc1S(=O)(=O)N1CCOCC1
11. COc1ccc(-c2ccc(C(=O)Nc3ccc(C(C)C)cc3)c3occc23)c(C)c1
12. CCOC(=O)c1cc2ccccc2n1C1CCN(C)CC1
13. CC(=O)c1ccc(OC2(C)CCN(CCOc3ccc(C)cc3)C2)cc1 (stereo unspecified)
14. COc1ccc([C@H]2C[C@H](O)[C@@H](n3cc(-c4ccc(F)cc4)nn3)CN2CC2CCCCC2)cc1
15. CC(C)(C)S(=O)N1Cc2cc(C(=O)NCCCN3CCOCC3)nc(-c3cccc(-c4cc5ccccc5o4)c3)c2[C@@H]1CCO (stereo partly specified)
16. CN(C)c1ncnc2c1ncn2[C@H]1CN(Cc2ccco2)C[C@@H](CO)O1
assay / compound,9,10,11,12,13,14,15,16
FGF22 binding,i,i,i,i,i,i,i,i
HNF4A DNA FP,3.3,0.9,-2.2,-1.0,-0.9,-0.5,4.4,1.3

17. COc1cc(Cl)ccc1OC1(C)CCN(Cc2ccc(-c3ccccn3)cc2)C1 (stereo unspecified)
18. O=C(NCC(O)c1nc2ccccc2[nH]1)c1ccc(Br)cc1 (stereo unspecified)
19. O=C(NC(c1ccc2c(c1)OCO2)c1ccccn1)C1CCN(CCOc2ccccc2)CC1 (stereo unspecified)
20. CC(=O)Nc1ccc(-c2ccnc3c2CC(C(=O)Nc2cccc(N(C)C)c2)O3)cc1 (stereo unspecified)
21. CN(C)c1ccc(CNC(=O)C2(C)Cc3c(-c4ccccc4)ccnc3O2)cc1 (stereo unspecified)
22. COc1ccc(N2C(=O)c3ccccc3NC(=O)C2C(=O)NCCc2ccccc2F)cc1 (stereo unspecified)
23. O=C1NC[C@H](CCCCN2C[C@H](Cc3ccccc3)N(CCc3ccc(O)cc3)C(=O)C2=O)N(CCc2ccc(O)cc2)C1=O
24. Nc1c(C(=O)Nc2ccc(Br)cc2)sc2nc(N3CCOCC3)c3c(c12)CCCC3
assay / compound,17,18,19,20,21,22,23,24
FGF22 binding,i,i,i,i,i,i,i,i
HNF4A DNA FP,-0.6,-2.9,2.6,-4.1,2.0,-0.9,1.4,-1.7

25. CCCC(=O)Nc1ccc(S(=O)(=O)N2CCc3ccccc32)cc1
26. COCCN1C(=O)CSCC1(C)C(=O)Nc1ccc2c(c1)OCCO2 (stereo unspecified)
27. COc1ccc(Cc2c(-c3ccc(F)cc3)nc3ccc(Br)cn23)c(C)c1
28. CC1(C(=O)Nc2ccc3c(c2)OCO3)CCN1Cc1csc2ccccc12 (stereo unspecified)
29. CCCCN(CCCC)Cc1cc(=O)oc2ccccc12
30. CCOC(=O)c1c(C)[nH]c(C(=O)OC(C)C(=O)NC2(C#N)CCCCC2)c1C (stereo unspecified)
31. CCC(Sc1nc2ccsc2c(=O)n1Cc1ccc(C(=O)O)cc1)C(=O)Nc1cccc(OC)c1 (stereo unspecified)
32. COc1cccc(-c2nc3nc(C)cc(C)n3c2NC2CCCCC2)c1
assay / compound,25,26,27,28,29,30,31,32
FGF22 binding,i,i,i,i,i,i,i,i
HNF4A DNA FP,0.4,-0.6,18,3.0,-0.5,-0.2,0.4,3.9

33. CC(C)NC(=O)C1(C)CSCC(=O)N1CC(F)(F)F (stereo unspecified)
34. C[C@@H]1CCCCO[C@H](CN(C)Cc2ccccc2)[C@@H](C)CN([C@H](C)CO)C(=O)c2cc(NC(=O)c3ccccc3)ccc2O1
35. COc1cccc(CNC(=O)C2CCN(S(=O)(=O)c3ccc4c(c3)C(C)(C)C(=O)N4C)CC2)c1
36. O=C(OCc1cn([C@@H]2CN(CC3CCCCC3)[C@@H](c3ccc(Cl)cc3)C[C@H]2O)nn1)c1ccccc1
37. C[C@@H]1CN([C@@H](C)CO)C(=O)CCCn2cc(nn2)CO[C@H]1CN(C)S(=O)(=O)c1cccc(C#N)c1
38. CSC[C@H]1CN(c2ccccc2)C(=O)[C@@H]1CC(=O)Nc1ccc(Br)cc1
39. COc1ccc(-c2cc(NC=O)c3ncc(-c4cc(OC)c(OC)c(OC)c4)n3c2)cc1
40. O=C(NCc1ccc(Cl)c(Cl)c1)c1cc(C2CCCCN2C(=O)OCCF)on1 (stereo unspecified)
assay / compound,33,34,35,36,37,38,39,40
FGF22 binding,i,i,i,i,i,i,i,i
HNF4A DNA FP,0.8,2.0,-1.6,-1.1,0.7,4.5,8.8,-1.8

41. CSc1ccc(CN2CCC(C)(Oc3ccc4ccccc4c3)C2)cc1 (stereo unspecified)
42. COc1ccc(C(=O)Nc2ccccc2C(=O)NC2CC2)c(OC)c1OC
43. O=C(Nc1ccc(N2CCOCC2)cc1)c1csc([C@@H]2C[C@H](O)[C@@H](CO)O2)n1
44. O=C(C1CCCCC1)N1C[C@H](O)[C@@H](n2cc(C3CC3)nn2)C[C@@H]1c1ccccc1
45. CCCNC(=O)C1(C)CCCN(C(=O)COc2ccc(C(C)(C)C)cc2)C1 (stereo unspecified)
46. O=C(Nc1ccc(F)cc1)C(c1cc2ccccc2o1)N1CCN(c2cccc(C(F)(F)F)n2)CC1 (stereo unspecified)
47. Cc1ccsc1CNC(=O)C1(C)CCN1C(=O)C(C)C (stereo unspecified)
48. Cc1cccc(NC(=O)COC(=O)CN2C(=O)c3ccccc3C2=O)c1C
assay / compound,41,42,43,44,45,46,47,48
FGF22 binding,i,i,i,i,i,i,i,i
HNF4A DNA FP,2.5,0.2,2.7,1.4,0.2,-4.6,-0.9,-2.2

49. O=C(COC(=O)c1cccc(S(=O)(=O)N2CCCC2)c1)c1ccc(F)cc1
50. O=C(NC1CCCCC1)C(c1ccc(C(F)(F)F)cc1)n1c(=O)c(-c2ccco2)nc2ccccc21 (stereo unspecified)
51. O=C(O)c1nc(-c2ccccc2)c(C(=O)NC2CC2)[nH]1
52. Cc1ccc2nc(N)nnc2c1
53. Cc1ccc([C@H]2C[C@H](O)[C@@H](n3cc(C4CC4)nn3)CN2CC2CCCCC2)cc1
54. Cc1ccc(S(=O)(=O)N=N/C=C2\C=CC=CN2O)cc1
55. C[C@@H](c1ccccc1)N1C[C@@H](COCc2ccccc2)Oc2cc(N3CCC[C@H]3CO)ccc2S1(=O)=O
56. COc1ccc(OC)c(C=Cc2ccc([N+](=O)[O-])cc2)c1
assay / compound,49,50,51,52,53,54,55,56
FGF22 binding,i,i,i,i,i,i,i,i
HNF4A DNA FP,0.3,26,4.0,2.3,-2.8,2.7,5.7,9.8

57. OC(c1ccc(F)c(F)c1)c1ncc(-c2cccc(C(F)(F)F)c2)[nH]1 (stereo unspecified)
58. CC(=O)Nc1ccc(C=CC(=O)c2ccc([N+](=O)[O-])cc2)cc1
59. Cc1noc(C)c1NC(=O)N(C)C[C@@H]1Oc2ncc(C#CC3CC3)cc2C(=O)N([C@@H](C)CO)C[C@@H]1C
60. COc1cccc(NC(=O)C2(C)CCN2C(=O)CCc2ccc(Cl)cc2Cl)c1 (stereo unspecified)
61. O=C1Nc2cc(C(=O)NCCN3CCCCCC3)ccc2S/C1=C/c1ccccc1F
62. CC(=O)Oc1ccc(Cn2c(C)c(C(=O)NCc3ccc(C#N)cc3)sc2=O)cc1
63. Cc1cc(C)n2c(NC3CCCCC3)c(-c3ccc(F)cc3)nc2n1
64. CC(C)NC(=O)c1ccc2nc([C@@H]3O[C@H](CO)[C@H](O)[C@H](O)[C@H]3O)[nH]c2c1
assay / compound,57,58,59,60,61,62,63,64
FGF22 binding,i,.,i,i,i,i,i,i
HNF4A DNA FP,1.3,1.9,3.8,8.4,6.2,3.3,3.8,-3.1

65. COc1ccc(CCNCCC(c2ccccc2)c2ccccc2)cc1OC
66. COc1cccc(NC(=O)C2(C)CCCN(C(C)C)C2)c1 (stereo unspecified)
67. CC1(C(=O)Nc2ccc3ccccc3c2)CCC(=O)N1CCOc1ccccc1 (stereo unspecified)
68. Fc1cccc(-c2cncc(N3CCN(CCN4CCCC4)CC3)n2)c1
69. CC(C)(C)NC(=O)C(c1ccccc1)n1c(=O)c(-c2ccco2)nc2ccccc21 (stereo unspecified)
70. CCCOc1ccc(F)cc1-c1cc(C(=O)NC(C)C)[nH]n1
71. O=C(Nc1cccc(OC(F)(F)F)c1)C1Cc2c(-c3ccc(Cl)cc3)ccnc2O1 (stereo unspecified)
72. Cc1ccsc1C(=O)OCC(=O)NC1CCCCC1
assay / compound,65,66,67,68,69,70,71,72
FGF22 binding,i,i,i,i,i,i,i,i
HNF4A DNA FP,2.6,0.1,-2.3,2.1,25,0.7,-6.9,0.9

73. CC(=O)Nc1ccc(Nc2nccc(C)n2)cc1
74. CCc1nc2ccc(C(=O)NCCc3ccccn3)cn2c1N(C)CCC(C)C
75. CCOC(=O)c1c(C)[nH]c(C(=O)OCC(=O)NCc2ccco2)c1C
76. CCc1c(O)nc(SCC(=O)Nc2ccccc2)n(-c2ccccc2C)c1=O
77. O=C(NCc1cccnc1)c1cc(C2CCCN(C(=O)c3cccc(O)c3)C2)on1 (stereo unspecified)
78. CC1(C(=O)NC2CCN(Cc3ccccc3)CC2)CCN1Cc1ccc(OC(F)(F)F)cc1 (stereo unspecified)
79. CC(C)[C@H](NC(=O)OC(C)(C)C)c1cc(C(=O)N(C)CCN(C)C)c(N)s1
80. COc1ccc(S(=O)(=O)NC(=O)C2(C)CCN2C(=O)Cc2ccccc2Cl)cc1OC (stereo unspecified)
assay / compound,73,74,75,76,77,78,79,80
FGF22 binding,i,i,i,i,i,i,i,i
HNF4A DNA FP,2.1,1.0,2.1,2.3,0.2,1.6,3.6,-4.0

81. COc1ccc(C(=O)CSc2nc3nn(-c4ccccc4)c(=O)c-3c3n2CCCCC3)c(OC)c1
82. Cc1cc(Br)cn2c(Cc3ccccc3)c(-c3ccc(C#N)cc3)nc12
83. NC(CSC(c1ccccc1)(c1ccccc1)c1ccc2c(c1)OCO2)C(=O)O (stereo unspecified)
84. Cc1ccc(-c2nc3cc(C)c(Br)c(C)n3c2Cc2ccccc2)cc1
85. C[C@H](c1ccccc1)N1C[C@H](COCc2ccccc2)Oc2cc(N3CC[C@@H](O)C3)ccc2S1(=O)=O
86. CCOC(=O)[C@]12CCC=C1N(Cc1ccc(Cl)cc1Cl)C(=O)[C@H](CC(=O)NCCC(C)C)C2
87. NC(CO)c1csc(NC(=O)Nc2cccc(Cl)c2)n1 (stereo unspecified)
88. CCOC(=O)[C@]12CCCC=C1N(CCC1=CCCCC1)C(=O)[C@H](CC(=O)N1CCN(C(=O)C3CC3)CC1)C2
assay / compound,81,82,83,84,85,86,87,88
FGF22 binding,i,i,i,i,i,i,i,i
HNF4A DNA FP,-4.1,2.7,-7.5,5.3,0.2,-4.4,-1.7,2.0

89. Cc1ccc(S(=O)(=O)Nc2ccc(Nc3nccn4c(-c5ccc6ccccc6c5)cnc34)cc2)cc1
90. Cc1ccccc1S(=O)(=O)N1C(c2ccc(Cl)c(Cl)c2)CC=C(C(=O)O)C1c1cccc(Br)c1 (stereo unspecified)
91. CCCCCCN1C[C@H](n2cc(-c3ccc(F)cc3)nn2)[C@@H](O)C[C@@H]1c1ccc(Cl)cc1
92. CC1(C(=O)NS(=O)(=O)Cc2ccccc2)CCN1C(=O)Cc1ccc(-c2ccccc2)cc1 (stereo unspecified)
93. Cc1ccc(S(=O)(=O)N2CCOCC2)cc1NC(=O)c1ccncc1
94. CC(=O)Nc1ccc(NC(=O)C2Cc3c(-c4cccc(F)c4)ccnc3O2)cc1 (stereo unspecified)
assay / compound,89,90,91,92,93,94
FGF22 binding,i,i,i,i,i,i
HNF4A DNA FP,4.3,-4.1,-8.0,2.0,1.9,-2.5

# Retrieved by structure from above, 5 records:
92. CC1(C(=O)NS(=O)(=O)Cc2ccccc2)CCN1C(=O)Cc1ccc(-c2ccccc2)cc1 (stereo unspecified)
94. CC(=O)Nc1ccc(NC(=O)C2Cc3c(-c4cccc(F)c4)ccnc3O2)cc1 (stereo unspecified)
91. CCCCCCN1C[C@H](n2cc(-c3ccc(F)cc3)nn2)[C@@H](O)C[C@@H]1c1ccc(Cl)cc1
90. Cc1ccccc1S(=O)(=O)N1C(c2ccc(Cl)c(Cl)c2)CC=C(C(=O)O)C1c1cccc(Br)c1 (stereo unspecified)
93. Cc1ccc(S(=O)(=O)N2CCOCC2)cc1NC(=O)c1ccncc1
assay / compound,92,94,91,90,93
FGF22 binding,i,i,i,i,i
HNF4A DNA FP,2.0,-2.5,-8.0,-4.1,1.9

# From PubChem
